Screening data as filed in PubChem.
AID504770: growth inhibitors of E. coli YBA685 in a screen for V. cholerae RctB (chromosome II replication) inhibitors | E. coli YBA685 rctB-dependent plasmid, OD600 growth, 3 h; stronger effect = lower value | z-score (no concentration beside the values) | 130,000 tested, 0.27% active;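 active means z-score under -2 on both plates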;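 further: wells of about 30 µL received 100 nL stock; score is relative to mean and SD of the test wells; the first replicate is given; strong numbers were not always called active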
CapD inh: blocks the Bacillus anthracis CapD enzyme. purified CapD enzyme, fluorescence intensity read-out; stronger effect = lower value; some hits fall short of the stated cut. z-score (test concentration not listed). 140,000 tested, 0.23% active. AID 492967;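 active means z-score under -4 in either of two replicates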;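 further: stock transfer was 100 nL into about 40 µL; score is relative to mean and spread of the plate; one replicate is shown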
An asterisk follows results filed as active; & = joins results of further samples.

How did CCNS(=O)(=O)c1ccc(NC(=O)c2ccc(Cn3cc(Br)cn3)o2)cc1 do in these assays?
AID504770: -0.85; CapD inh: -0.68

What do the screens show for `O=C(CSc1nnc2n1CCCCC2)c1ccc(Cl)cc1`?
AID504770: -0.85; CapD inh: 0.35

What do the screens show for `N#CC1=C(N)C2=CCCC[C@H]2[C@H](c2cccnc2)C1(C#N)C#N`?
CapD inh: 1.7

Results for N#Cc1cn(C2CC2)c(=O)[nH]c1=O ?
CapD inh: -0.04

What do the screens show for `C=CCn1c(SCc2ccc(C(=O)NCCCO)cc2)nc2sc3c(c2c1=O)CCCC3`?
CapD inh: -0.04

What do the screens show for `COc1cccc(C2c3c(-c4ccccc4)n[nH]c3C(=O)N2c2ccc(Cl)cc2)c1` (centres undefined)?
CapD inh: -0.24

Results for CC(C)OC(=O)N(c1ccccc1)P(=O)(OC(C)C)OC(C)C ?
CapD inh: -0.4

What do the screens show for `COc1ccc(C(=O)OCC(=O)NC23CC4CC(CC(C4)C2)C3)c(O)c1`?
AID504770: 0.85

How did Cc1ccc2cc(CCNC(=O)C(C)(C)C)c(=O)[nH]c2c1 do in these assays?
AID504770: -1.4

Results for O=C1NC(=O)C(=Cc2ccc(OCc3ccc(C(=O)O)cc3)c(Br)c2)C(=O)N1 ?
CapD inh: -0.22

What do the screens show for `COc1ccc(-c2c3c(=O)n(C)c(=O)n(C)c3cn2-c2cccc(NC(C)=O)c2)cc1`?
AID504770: -0.55; CapD inh: -0.15

How did CCOc1ccc(CCNC(=O)c2cccc3c2C(=O)N(Cc2cccnc2)C3)cc1OCC do in these assays?
AID504770: -0.65; CapD inh: -0.34

Results for COC(=O)c1scc2c(Oc3ccccc3)cc(C(F)(F)F)nc12 ?
AID504770: 0.65; CapD inh: 2.3

How did CCCn1c(N)c(C(=O)COC(=O)c2c3c(nc4ccccc24)CCC3)c(=O)[nH]c1=O do in these assays?
AID504770: -0.25

What do the screens show for `O=C(NCC1CCCO1)C(=O)Nc1ccc(Cl)cc1` (centres undefined)?
CapD inh: -0.085

Results for COc1cc(/C=C/C(=O)Nc2ccc3nc(N4CCN(c5ncccn5)CC4)cc(C)c3c2)cc(OC)c1OC ?
AID504770: -0.45; CapD inh: 4.7

How did Cn1cccc1C(=O)Nc1nccs1 do in these assays?
AID504770: -0.5

Results for COC(=O)C1=C(C(=O)OC)SC(=C2C(=S)C(C)(C)N(C(C)=O)c3ccc(C)cc32)S1 ?
CapD inh: -0.54

Results for N#CCCn1cc(/C=N/O)c(-c2ccc(Br)cc2)n1 ?
AID504770: 0.6

How did NNC(=O)CC1=Nn2c(nnc2-c2ccc(Cl)cc2)SC1 do in these assays?
AID504770: 0.8

What do the screens show for `O=c1[nH]ccc2nc(N3CCOCC3)ncc12`?
AID504770: -0.8; CapD inh: -0.51

Results for CS(=O)(=O)c1ccc(COc2ccccc2C(=O)NCC2CCCO2)cc1 (centres undefined) ?
CapD inh: -0.32

What do the screens show for `c1ccc(-c2cccs2)cc1`?
AID504770: 2; CapD inh: 0.47

How did COc1cc(/C=N/NC(=O)c2nnn(-c3nonc3N)c2CN2CCCCCC2)cc(OC)c1OC do in these assays?
CapD inh: -0.38

Results for CN(c1ccc(C(=O)NC2CCCCC2)cc1)S(C)(=O)=O ?
AID504770: -0.45; CapD inh: -0.31

Results for CCN(Cc1ccncc1)Cn1nc(-c2ccncc2)n(CCOC)c1=S ?
AID504770: -0.3

What do the screens show for `CC(=O)N1CCc2cccc(NS(=O)(=O)c3cccc(C(F)(F)F)c3)c21`?
CapD inh: -0.81

How did CN(C)c1ccc(C(=O)N2CCN(c3ccccc3)CC2)cc1 do in these assays?
AID504770: -0.4

What do the screens show for `COc1cc(C=C(C#N)C#N)ccc1OC(=O)c1ccco1`?
AID504770: -1.4

How did Cc1nn(CC(=O)c2ccc3c(c2)OCCO3)c(=O)c(C#N)c1C do in these assays?
AID504770: -0.35

Results for O=C(Nc1ccc(N2C(=O)C3C4C=CC(C4)C3C2=O)cc1)Nc1ccccn1 (centres undefined) ?
AID504770: -1.1; CapD inh: 0.68

What do the screens show for `COc1ccc(CCNC(=O)c2sc3nc(C)nc(N4CCC(C)CC4)c3c2C)cc1OC`?
CapD inh: 0.51

How did c1ccc(CSc2nnc(-c3ccccc3)n2Cc2ccco2)cc1 do in these assays?
AID504770: 0.85

What do the screens show for `CCOC(=O)c1cc(C)[nH]c(=O)n1`?
AID504770: 2.4; CapD inh: 27

Results for COc1cc2ccccc2cc1C(N)=O ?
AID504770: -1.1

How did Cc1ccc(NC(=O)CSc2nnc(NC(=O)C3CCCCC3)s2)cc1 do in these assays?
AID504770: -0.9; CapD inh: 0.015

How did CCN(Cc1ccccc1)C(=O)c1ccc(S(=O)(=O)N(C)C)cc1 do in these assays?
AID504770: -0.15

Results for CCN1C(=O)CS/C1=C(\C#N)S(=O)(=O)c1ccccc1 ?
AID504770: -0.6; CapD inh: 0.11

Results for COc1cc(/C=C2\SC(=S)N(c3cccc(C(F)(F)F)c3)C2=O)ccc1O ?
AID504770: 1.1; CapD inh: 0.2

What do the screens show for `Cc1oc(C(=O)O)cc1COc1ccc2c3c(c(=O)oc2c1)CCCC3`?
AID504770: 0.9; CapD inh: -0.62

Results for CCOc1cccc2c1OC1(C)CC2/C(=C(\C)O)C(=O)N1 (centres undefined) ?
CapD inh: -0.26

What do the screens show for `CC1=CC(C)(C)N(C(=O)CSc2nnc(-c3ccc(C)cc3)o2)c2ccc(C)cc21`?
CapD inh: -0.36

Results for CCN(CC)C(=O)c1cc2c(s1)-c1ccccc1S(=O)(=O)C2 ?
AID504770: 1.9; CapD inh: 1.7

Results for O=S1(=O)CCC(Sc2cc(Cl)ccc2Cl)c2ccsc21 (centres undefined) ?
CapD inh: 0.015

How did Cc1ccc(OCCSc2nc(N)cc(N)n2)c(C(C)C)c1 do in these assays?
AID504770: 2.2; CapD inh: -0.51

Results for CCOC(=O)c1c(NC(=O)C(F)(F)F)n[nH]c1N ?
AID504770: 2.5

What do the screens show for `Cc1cc(Cl)ccc1OCc1cn2cccnc2n1`?
AID504770: 0.95; CapD inh: 22

What do the screens show for `COc1ccc(OC)c(CN2CCN(S(=O)(=O)c3ccc(Cl)cc3)CC2)c1`?
CapD inh: -0.36

How did N#C/C(=C/c1cccs1)C(N)=S do in these assays?
AID504770: 0.25

Results for C[C@]12CCC3c4ccc(OS(=O)(=O)O)cc4CCC3C1CC[C@H]2O (some centres undefined) ?
CapD inh: -0.17

What do the screens show for `O=S(=O)(Cc1ccccc1)N1CCCC1c1nc2ccccc2s1` (centres undefined)?
CapD inh: -0.81

What do the screens show for `Cc1c(C(=O)Nc2ccc(Oc3ccccc3)cc2)sc2ncn(CC(=O)N3CCCCC3C)c(=O)c12` (centres undefined)?
CapD inh: -0.91

How did Cc1ccc(S(=O)(=O)Nc2ncccc2OCc2cc(F)cc(F)c2)cc1 do in these assays?
AID504770: 1; CapD inh: 0.84

How did N#Cc1ccccc1CSc1nc2ncc(Br)cc2[nH]1 do in these assays?
AID504770: -0.5; CapD inh: 0.3

How did Cc1nn(-c2ccc(F)cc2)c(-n2cccc2)c1C(=O)NCCc1cccs1 do in these assays?
AID504770: -0.8; CapD inh: -0.58

How did CCOC(=O)c1c(C)[nH]c(C)c1S(=O)(=O)NCCc1ccccc1 do in these assays?
AID504770: 0.75; CapD inh: -0.3

Results for CC1(C)CC(=O)C=C(NCCc2ccc(S(N)(=O)=O)cc2)C1 ?
CapD inh: -0.42

Results for Cc1cc(N2CCCC2)ccc1NC(=O)COc1ccc(Cl)cc1 ?
AID504770: 1.6

How did COc1cc(/C=C2/SC(=S)N(Cc3ccccc3)C2=O)ccc1OCC(N)=O do in these assays?
AID504770: -0.4; CapD inh: -0.35

What do the screens show for `CCOc1ccc(NC(=O)C(C)NS(=O)(=O)c2ccc(C)cc2)cc1` (centres undefined)?
AID504770: -0.8; CapD inh: -0.12

What do the screens show for `Cc1ccc(S(=O)(=O)N/N=C/C(=O)O)cc1`?
CapD inh: 0.26

What do the screens show for `COc1cccc(C(=O)Nc2ccc(C)cc2)c1`?
AID504770: 1.8; CapD inh: 0.48

What do the screens show for `CCc1ccccc1N(C)C(=O)c1noc2c1CCCC2`?
AID504770: 0.1; CapD inh: 0.18

How did CN=c1scc(-c2ccc3c(c2)NC(=O)CO3)n1/N=C/c1ccc(C#N)cc1 do in these assays?
AID504770: -0.6

How did C/C(O)=C1/C(=O)NC2(C)CC1c1cc(Br)ccc1O2 (centres undefined) do in these assays?
CapD inh: 0.065

Results for CC1CN(C)C(C)(C)CC1(O)c1ccccc1 (centres undefined) ?
AID504770: 0.2

Results for COc1cc(CN2CCN(CCOC(=O)NNC(=O)c3ccnc(Cl)c3)CC2)cc2c1OCO2 ?
CapD inh: 0.49

How did Cc1nn(CC(=O)NC2CCCc3ccccc32)c(=O)c2cc3sccc3n12 (centres undefined) do in these assays?
AID504770: 0.05; CapD inh: -0.94

Results for Cc1cc(S(=O)(=O)N2CCC(c3nc4c(nnn4Cc4ccc(F)cc4)c(=O)[nH]3)CC2)ccc1-n1cnnn1 ?
AID504770: -0.7

Results for Cc1cc(C)cc(N2C(=O)CN=C2Nc2nc(C)cc(C)n2)c1 ?
CapD inh: 0.15

How did N#C/C(=C\c1ccc[nH]1)c1nn(-c2ccccc2)c(-n2cccc2)c1C#N do in these assays?
CapD inh: 0.055

How did CC1=C(C(N)=O)C(c2ccccc2)n2nc(-c3ccccc3)nc2N1 (centres undefined) do in these assays?
AID504770: 0.35; CapD inh: -0.42

Results for CCC(C)(C(=O)NC1CCCC1)N(C(=O)c1ccccn1)c1ccc(C)cc1 (centres undefined) ?
AID504770: 0.6; CapD inh: 0.36

Results for CCc1cc(-c2nn(CN3CCOCC3)c(C)c2-c2nc3ccccc3n2C)c(O)c(CN2CCOCC2)c1O ?
AID504770: 0

What do the screens show for `CC(C(=O)O)N1C(=O)/C(=C/c2ccco2)SC1=S` (centres undefined)?
AID504770: -0.15

Results for NN1C(=O)c2ccccc2NC1C1CC=CCC1 (centres undefined) ?
AID504770: 1.4; CapD inh: 33

Results for Cc1nnc2n1NC(c1ccccc1)C(C(=O)NCc1ccco1)S2 (centres undefined) ?
AID504770: 0.3; CapD inh: 0.6

What do the screens show for `O=C(NCC(=O)N1CCN(Cc2ccccc2)CC1)c1ccc(Cl)c(Cl)c1`?
AID504770: 0.35

How did CN(C)c1ccc(C(=O)NNC(=O)OC/C=C/COCc2ccccc2)cc1 do in these assays?
CapD inh: 0.92

What do the screens show for `Cc1occ(-c2cc(F)ccc2Cl)c1C(=O)NC1Cc2ccccc2C1`?
CapD inh: 1.3

A draw from above in order of formula weight, high to low:
Results for Cc1cc(S(=O)(=O)N2CCC(c3nc4c(nnn4Cc4ccc(F)cc4)c(=O)[nH]3)CC2)ccc1-n1cnnn1 ?
AID504770: -0.7

Results for COc1cc(CN2CCN(CCOC(=O)NNC(=O)c3ccnc(Cl)c3)CC2)cc2c1OCO2 ?
CapD inh: 0.49

What do the screens show for `O=C(NCC(=O)N1CCN(Cc2ccccc2)CC1)c1ccc(Cl)c(Cl)c1`?
AID504770: 0.35

How did Cc1nn(CC(=O)NC2CCCc3ccccc32)c(=O)c2cc3sccc3n12 (centres undefined) do in these assays?
AID504770: 0.05; CapD inh: -0.94

How did CN(C)c1ccc(C(=O)NNC(=O)OC/C=C/COCc2ccccc2)cc1 do in these assays?
CapD inh: 0.92

Results for Cc1nnc2n1NC(c1ccccc1)C(C(=O)NCc1ccco1)S2 (centres undefined) ?
AID504770: 0.3; CapD inh: 0.6

How did N#C/C(=C\c1ccc[nH]1)c1nn(-c2ccccc2)c(-n2cccc2)c1C#N do in these assays?
CapD inh: 0.055

Results for Cc1cc(C)cc(N2C(=O)CN=C2Nc2nc(C)cc(C)n2)c1 ?
CapD inh: 0.15

What do the screens show for `CCc1ccccc1N(C)C(=O)c1noc2c1CCCC2`?
AID504770: 0.1; CapD inh: 0.18

Results for NN1C(=O)c2ccccc2NC1C1CC=CCC1 (centres undefined) ?
AID504770: 1.4; CapD inh: 33

What do the screens show for `Cc1ccc(S(=O)(=O)N/N=C/C(=O)O)cc1`?
CapD inh: 0.26

Results for CC1CN(C)C(C)(C)CC1(O)c1ccccc1 (centres undefined) ?
AID504770: 0.2

Going on with the list:
Results for CN(C(=O)c1ccc(N2CC3CC(C2)c2cccc(=O)n2C3)c(NC(=O)c2cc3ccccc3oc2=O)c1)C1CCCCC1 (centres undefined) ?
CapD inh: -0.72

Results for Cn1c(SCC(=O)NCc2ccccn2)nc2sc3c(c2c1=O)CCCC3 ?
CapD inh: -0.38

How did Cc1nn(-c2ccccc2)c2c1nc(CCC(=O)NCC1CCCO1)c(=O)n2C (centres undefined) do in these assays?
AID504770: 0.35; CapD inh: 1.4

Results for CC(C)(C)N(Cc1ccccc1)C(=O)c1ccco1 ?
AID504770: -0.35; CapD inh: -0.4

What do the screens show for `OC(COc1ccc2oc3ccccc3c2c1)CN1CCN(Cc2ccccc2)CC1` (centres undefined)?
AID504770: -0.6

What do the screens show for `O=S(=O)(Nc1nnc(C(F)(F)F)s1)c1cccc(C(F)(F)F)c1`?
CapD inh: -0.04

How did COC(=O)c1cn(NC(=O)Cc2ccccc2OC)c(=O)c2ccccc12 do in these assays?
CapD inh: 0.43

How did CCOc1cc(C(F)(F)F)c(C(=O)N(C)Cc2ccc(Cl)cc2)cn1 do in these assays?
AID504770: 0.4; CapD inh: -0.065

What do the screens show for `COc1cc(C(=O)Nc2ccc3oc(-c4ccc5ccccc5c4)nc3c2)cc(OC)c1OC`?
CapD inh: 11

Results for CCOC(=O)c1c(NC(=O)c2cccc(F)c2)sc(C(=O)Nc2ccc(OC)cc2OC)c1C ?
CapD inh: 0.38

How did COc1ccc(OC)c(NC(=O)c2cc(S(=O)(=O)N3CCN(c4ccccc4OC)CC3)ccc2F)c1 do in these assays?
CapD inh: -0.57

How did COc1ccc(-c2csc(-c3cccnc3)n2)cc1 do in these assays?
AID504770: -0.15&-0.15; CapD inh: 3&1.7

What do the screens show for `CSc1cc(-c2nccs2)[nH]n1`?
AID504770: 1.4; CapD inh: 0.43

This is a subset. The share of hits here may be higher or lower than overall.
